# D2 PAM – potentiates the human D2 dopamine receptor allosterically. potentiation, % (test concentration not listed). AID 624464. hit rate 0.23% among 360,000. P14416. DiscoveRx D2 beta-arrestin cells, luminescence, 90 min; 100% = 57 uM dopamine signal; active = potentiation of 50% or more; inconclusive = 30% to 50%; inactive = 30% or less;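 also: compound concentration not given in the record; tested on top of an EC20 dose of dopamine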
#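 PathHunter D2 cells, attached overnight at 37 deg C, received compound in DMSO plus dopamine at EC20 (50 nM final) for 90 min at 37 deg C. Beta-arrestin recruitment was read as luminescence after 1 h with detection reagent at ambient temperature.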
# TRPML1 agonist – agonists of human TRPML1 channel; Q9GZU1; TRPML1-expressing cells, Ca2+ dye fluorescence, FDSS; host cell line not named in the record; reference of the full effect not given here; activation, % (concentration not given with the values); hit rate 0.12% among 410,000; in the data active = activation above about 50%; inconclusive = about 30% to 50%; inactive = below about 30%; also: 0% is about no effect; the text of the record puts the active cut at 80%
#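 Tetracycline-induced TRPML1-DL cells are seeded and incubated overnight before loading with a no-wash Ca2+ dye and quencher. Agonist activity is taken from the 110 s fluorescence read following compound pin-transfer on an FDSS, before EC80 54-4 challenge.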
# PINK1 expr mod – PINK1 expression modulation | PINK1 immunofluorescence, high-content cytometry, 24 h | Potency, µM (series often up to 76.6 µM), for the others: top-dose activation (PINK1 increase), actives largely listed as activators | hit rate 0.2% among 410,000 | AID 624263; active = well fitted activation curve with a large enough effect; inconclusive = small, poorly fitted or top-dose-only effect; inactive = flat fitted curve, though single readings scatter; cell line not stated here;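 also: potency is read from the fitted curve at half-maximal effect; % of control where 0% means no effect; nearly all actives have a fitted effect of over 65% in size; a mitochondrial uncoupler was the plate control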
#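 Cells are seeded, rested 12 hours, then given compound at five concentrations or DMSO for 24 hours. After fixation, blocking and antibody staining, PINK1 amount and mitochondrial localization are scored; CCCP serves as control.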
# Six1-Eya2 blk – blocks human Six1 binding to Eya2; Q15475+O00167; AlphaScreen GST-Six1/His-Eya2 binding, biochemical; active compounds read low; control for the full effect not named in the record; activity change, % (no concentration beside the values); hit rate 0.56% among 360,000; in the data active = activity change below about -65%; inconclusive = about -30% to -65%; inactive = above about -30%; also: % is scaled to controls: 0 for no effect and ±100 for the full control effect
# Target sequence (O00167 whole entry, looked up): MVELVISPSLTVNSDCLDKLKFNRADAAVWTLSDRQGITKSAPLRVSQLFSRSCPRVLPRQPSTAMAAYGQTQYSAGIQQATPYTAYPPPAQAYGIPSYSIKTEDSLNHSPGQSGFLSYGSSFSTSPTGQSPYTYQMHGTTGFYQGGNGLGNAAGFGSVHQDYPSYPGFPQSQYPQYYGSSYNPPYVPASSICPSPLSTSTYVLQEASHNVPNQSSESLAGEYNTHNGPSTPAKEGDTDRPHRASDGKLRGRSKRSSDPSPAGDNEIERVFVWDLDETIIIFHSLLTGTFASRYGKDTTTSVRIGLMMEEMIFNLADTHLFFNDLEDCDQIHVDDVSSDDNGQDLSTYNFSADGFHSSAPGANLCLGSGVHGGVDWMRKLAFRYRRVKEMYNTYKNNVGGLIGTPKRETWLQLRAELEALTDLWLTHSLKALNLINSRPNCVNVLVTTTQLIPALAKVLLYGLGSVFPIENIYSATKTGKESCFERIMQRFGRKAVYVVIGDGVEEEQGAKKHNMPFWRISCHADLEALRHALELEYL
# Target sequence (Q15475 whole entry, looked up): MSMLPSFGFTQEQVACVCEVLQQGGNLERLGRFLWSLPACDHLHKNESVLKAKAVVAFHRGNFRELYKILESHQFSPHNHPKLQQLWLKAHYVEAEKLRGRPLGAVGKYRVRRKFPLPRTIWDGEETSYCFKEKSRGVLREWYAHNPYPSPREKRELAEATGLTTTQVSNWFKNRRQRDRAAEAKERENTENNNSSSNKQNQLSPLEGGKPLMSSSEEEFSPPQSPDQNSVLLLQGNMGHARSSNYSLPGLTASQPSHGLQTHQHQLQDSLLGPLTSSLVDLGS
#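 Compounds are tested against tagged Six1 and Eya2 proteins bridged by glutathione donor and nickel acceptor beads; after a one-hour incubation at 37 °C without light, AlphaScreen emission is recorded.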
# CtBP-E1A blk – CtBP/E1A binding inhibition; hit rate 0.49% among 340,000; AID 651724; AlphaScreen GST-E1A/His-CtBP binding, 1536-well; active compounds read low; control for the full effect not named in the record; activity change, % (no concentration beside the values); in the data active means activity change below about -65%; inconclusive means about -30% to -65%; inactive means above about -30%; also: % is scaled to controls: 0 for no effect and ±100 for the full control effect
#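 In 5 uL wells, 23 nL compound meets equimolar GST-E1A and His-CtBP (5X stock 125 nM each) for 2 h, 37 °C. Beads (5X, 50 ug/mL) then 1 h, 37 °C, dark.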
# D2 ag – activates the human D2 dopamine receptor | P14416 | DiscoveRx PathHunter D2 beta-arrestin, luminescence, 90 min; 100% = 57 uM dopamine signal | activation, % (no concentration beside the values) | hit rate 0.084% among 360,000 | AID 624465; in the data active = activation above about 40%; inconclusive = about 15% to 40%; inactive = below about 15%; also: compound concentration not given in the record; the text of the record calls up to 30% inactive
#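 DiscoveRx PathHunter D2 beta-arrestin cells (2,100/well) attached overnight, then compound-stimulated 90 min at 37 C in HBSS/10 mM HEPES/0.1% Tween-20 buffer; beta-galactosidase complementation read by luminescence after 1 h at ambient temperature. Dopamine 57 uM final (EC100) as control.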
# Active calls of the source: *; u = inconclusive; x = no result given; [ ] = another dose, or the depositor's remark.
SMILES,D2 PAM,TRPML1 agonist,PINK1 expr mod,Six1-Eya2 blk,CtBP-E1A blk,D2 ag
NS(=O)(=O)c1ccc(SCc2ccccc2)nc1,-7,1.7,1.2%,-2,1,11
Cc1ccc(-c2csc(N(CC3CCCO3)C(=O)c3ccco3)n2)cc1 (configuration not stated),-3,2.9,3.6%,-7,-17,-1.0
CC1CCCC(C)N1c1nnc(N)s1 (configuration not stated),1,1.7,-0.3%,-3,-2,-2.6
CCc1c(C)nc(N2CCN(c3ccc(OC)cc3)CC2)[nH]c1=O,14,x,3.4%,-1,x,3.8
CCOc1ccc(NC(=O)CC2C(=O)N(c3ccccc3)C(=O)N2CCOC)cc1 (configuration not stated),-2,-0.4,-1.0%,0,-1,-3.7
C=CCC[C@@H](Cc1ccc(F)cc1)C(=O)OC[C@@H](C)NC(=O)[C@H](CC=C)CC(=O)N(CCO)Cc1ccccc1,-3,1.6,9.7%,4,2,1.7
O=C(O)CC1NC(=S)N(c2ccccc2)C1=O (configuration not stated),-9,0.0,2.5%[38.3 µM],-7,-3,-6.5
O=C(C1CCCC1)N1CCN(S(=O)(=O)c2ccc(Cl)cc2)CC1,-5,0.4,2.7%,-3,3,-1.4
Cc1occc1C(=O)N1CCN(c2ccc(Cl)cc2)CC1,-3,0.7,1.0%,-12,0,1.6
COc1ccccc1NS(=O)(=O)c1cc(N/C(=N\S(=O)(=O)c2ccccc2)c2ccc(F)cc2)ccc1Cl,-4,1.1,0.9%,3,-9,-4.7
CN(CC(=O)N1CCN(Cc2ccccc2)CC1)C(=O)Cc1ccc(Cl)c(Cl)c1,-11,-0.7,1.1%,-1,5,-0.2
CN(CC(=O)Nc1ccccc1Br)C(=O)c1cc(S(=O)(=O)N(C)C)ccc1N1CCCC1,-17,1.2,0.5%,-13,6,11
N#Cc1c(N)c(C(=O)c2ccc(Br)cc2)n2c1CCC2,-12,2.5,3.3%,5,2,-1.4
O=[N+]([O-])c1ccccc1COc1ccc(Cl)c2cccnc12,-8,2.0,5.3%,-2,x,-1.8
FC(F)c1nc2ccccc2[nH]1,-6,1.0,0.5%,11,-25,-1.1
CC(C)CCOc1ccc(C2=NNC(=O)CC2)cc1,-5,2.1,2.9%,0,0,4.1
O=C(CSc1ccc(Br)cc1)N1CCN(S(=O)(=O)c2ccccc2)CC1,-1,1.5,-0.2%,-1,4,0.0
COc1ccccc1C(=O)NNC(=O)c1ccncc1,-9,0.0,-0.3%,8,1,-1.6
Cc1noc(C)c1COc1cccc(C(=O)OCC(=O)NC(=O)c2ccc(OC(F)F)cc2)c1,-18,1.4,17%,0,-7,-1.1
Cc1ccc(NC(=O)CCNS(=O)(=O)c2ccc3[nH]c(=O)oc3c2)c(C)c1,-4,-0.7,1.1%,0,2,-2.1
CC(=O)c1cccc(N(CC(=O)N2CCCC2)S(C)(=O)=O)c1,-11,-0.1,u,3,-23,-1.6
O=C(COc1ncnc2sccc12)Nc1cccc(S(=O)(=O)N2CCCC2)c1,-8,0.7,-0.7%,1,-9,1.4
S=C(Nc1ccc(Cl)cc1)N1CCCC1,2,-0.3,2.1%,3,15,-1.5
O=C(CSc1nnc2scc(-c3ccc(Cl)cc3)n12)NCc1ccc2c(c1)OCO2,-16,2.9,0.4%[38.3 µM],1,-4,-2.8
CCCCOc1ccc(CSC(CC(=O)O)C(=O)O)cc1 (configuration not stated),14,-0.5,1.4%,14,4,-0.4
CCOC(=O)c1c(-c2ccc(OC)cc2)csc1NC(=O)CCN1CCOCC1,0,0.3,2.0%,-30,-7,-0.7
O=c1ccc(-c2ccc(S(=O)(=O)NCC3CCN(Cc4cccc(F)c4)CC3)s2)n[nH]1,-33,0.3,-1.4%,u,u,-3.3
CC(=O)CCn1c(=O)n(CCC(C)=O)c(=O)n(CCC(C)=O)c1=O,-5,0.1,-0.8%,3,3,0.2
NC(=S)Nc1ccc(Oc2ccc(NC(N)=S)cc2)cc1,-18,0.3,2.3%[38.3 µM],-3,-4,-2.6
O=C(Nc1ccc(/C=C/c2nc3ccccc3o2)cc1)c1ccc(F)cc1,23,-0.7,1.8%,7,8,-2.4
Cn1c(SCC(=O)NCCc2ccccc2)nnc1-c1ccco1,-9,-0.8,0.7%,1,3,-0.1
CN1CCN(CCCn2cnc3c(=O)oc4ccccc4c32)CC1,-14,0.0,-1.5%,-3,-3,-2.7
Cc1cccc(Nc2nc(N)nc(N)c2N=O)c1,-7,0.2,-2.8%,-11,-11,-3.4
Cc1ccc(CN2C(=O)N/C(=C/c3ccc(-c4ccc(C(=O)O)cc4)o3)C2=O)cc1,-5,x,1.6%,11,19,8.1
Cn1c(=O)[nH]c(=O)c2c1nc(NCc1ccccc1)n2CCCc1ccccc1,-7,0.4,2.8%,2,13,1.2
Cc1cc(NC(=O)CSc2nc3c(c(=O)n2C)SCC3)no1,0,-0.4,-2.4%,4,8,-2.6
COc1ccccc1-c1cnc(C(O)c2ccc(CN3CCCC3)cc2)[nH]1 (configuration not stated),-7,-0.4,2.0%,-15,-13,4.3
Cc1cc(NC(=O)c2nn(C)c(C)c2Br)no1,-3,1.3,0.4%,7,2,-1.2
O=c1[nH]cnc2sc3c(c12)CCN(Cc1ccccc1)C3,8,1.1,0.1%,-15,1,u
COC(CNC(=O)c1ccc(CS(=O)(=O)c2ccc(C)cc2)o1)OC,-12,0.7,0.4%,6,5,-2.2
COc1ccc2oc(N)nc2c1,-2,0.6,-1.7%,7,-18,-1.3
COC(=O)CSc1n[nH]c(-c2cccnc2)n1,12,0.0,x,5,3,1.7
COC(=O)C1=C(CSc2nncn2C)NC(=O)NC1c1cc(C)ccc1C (configuration not stated),0,-0.1,-0.8%,10,-1,-0.2
CCc1nn(CC(=O)NCCC(C)C)c(=O)c2cc3c(OC)cccc3n12,-13,1.2,0.2%,10,x,-3.6
CC(=O)c1ccc(S(=O)(=O)N(Cc2cc3cc4c(cc3[nH]c2=O)OCCO4)CC2CCCO2)cc1 (configuration not stated),-5,0.6,x,-3,-7,-3.8
Cc1cc(C)c(-c2c(N)cc(Br)cc2Br)c(N)c1,0,0.3,12%,-26,-23,1.9
CC[C@@]1(C(=O)OC)N[C@H](CN(C)C(C)=O)[C@@H]2C(=O)N(Cc3ccccc3)C(=O)[C@@H]21,-2,1.5,0.0%,9,10,3.1
O=C(Cc1cccc(NC(=O)C2CCCN(C(=O)c3ccccc3)C2)c1)Nc1cccc(C(=O)N2CCOCC2)c1 (configuration not stated),x,-0.9,-0.4%,3,5,-0.2
COCCCNc1ccn2nc(-c3cccc(OCc4ccccc4)c3)cc2n1,-3,0.0,1.0%,9,-16,7.2
Nc1ccccc1NC(=O)c1ccccc1N,-5,5.3,-1.6%,0,0,-4.5
# Remaining list, next part
SMILES,D2 PAM,TRPML1 agonist,PINK1 expr mod,Six1-Eya2 blk,CtBP-E1A blk,D2 ag
Nc1cc2c(cc1C(=O)c1ccc(Cl)cc1)OCCO2,-12,-0.7,7.9%[38.3 µM],u,u,-4.3
C=CCSc1nc(-c2ccccc2)c(C#N)c(=O)[nH]1,0,1.8,26%[38.3 µM],-1,1,2.9
COc1ccccc1-c1cnc(C(O)c2ccc(Cl)c(Cl)c2)[nH]1 (configuration not stated),-9,-0.9,-1.0%,-5,0,-3.5
CC(C)Cc1cc(C(=O)N2CCC(N3CCC(C(=O)NC4CC4)CC3)CC2)n[nH]1,-12,0.7,4.0%,8,1,-5.4
Cc1nc2ccccc2c(=O)n1/N=C/c1cc(Br)ccc1O,-2,1.3,3.5%,u,-65*,-2.4
O=C(Cn1nnc2ccccc2c1=O)NCCc1ccc(Cl)cc1Cl,2,-1.3,8.0%,0,x,-1.9
O=S(=O)([O-])CCC[n+]1c(SCCCS(=O)(=O)O)sc2ccc(Cl)cc21,4,-0.3,2.7%,2,1,-4.3
O=C(CCC(=O)c1ccc(F)cc1)NN1C(=O)NC2(CCCCC2)C1=O,-9,-0.9,0.1%,7,6,-1.3
Cc1ccnc(NC(=O)C23CC4CC(CC(C4)C2)C3)c1,3,1.4,u,2,3,-1.1
CCOc1ccc(NS(=O)(=O)c2cc(C(=O)N3CC(C)OC(C)C3)ccc2C)cc1 (configuration not stated),-8,1.6,1.4%,7,1,-2.7
Cc1ccc(NC2CCCN(C(=O)c3ccc4[nH]ccc4c3)C2)cc1C (configuration not stated),-12,0.6,2.9%,-14,-3,1.1
CCOc1ccc(Cl)cc1CSc1n[nH]c(CC)n1,-6,3.0,5.3%[38.3 µM],5,4,3.4
C/C(=N\NC(=O)c1cc(C(C)(C)C)[nH]n1)C12CC3CC(CC(C3)C1)C2,-17,-1.2,3.8%,-1,-2,-1.3
Cc1cc(OCC(=O)Nc2ccc(S(=O)(=O)N3CCN(C)CC3)cc2)ccc1Br,0,0.5,2.4%,-18,-15,2.8
CC(C)COC(=O)N(C)C[C@H]1OCc2cn(nn2)CCCC(=O)N([C@@H](C)CO)C[C@@H]1C,-7,-0.5,2.5%,17,-1,-4.2
CCN1CCN(C(=S)Nc2ccc3nc(N4CCN(CC)CC4)cc(C)c3c2)CC1,-37,0.0,-0.3%,-14,-22,-6.8
CCn1nnnc1SCC(=O)Nc1ccc2c(c1)OCO2,-38,-0.3,0.6%,-1,8,-0.1
Cc1cc(NC(=O)COC(=O)c2cc(S(=O)(=O)N3CCOCC3)ccc2N2CCCCC2)no1,-1,1.3,-0.7%,3,1,-1.2
COc1cccc(CC(=O)Nc2sc3c(c2C(N)=O)CCCC3)c1,-1,1.6,7.4%,-11,0,1.7
Nc1cc(N)nc(SCC(=O)Nc2cccc(S(=O)(=O)N3CCCCC3)c2)n1,-1,0.9,0.3%,0,-20,-1.5
Cc1cc(NC(=O)CSCC(=O)Nc2ccc(C)c(C)c2)no1,-1,0.3,-1.8%,9,1,-2.7
COc1ccc(N(CC(=O)NCCSCc2ccco2)S(=O)(=O)c2ccc(C)cc2)cc1,-7,-0.4,0.7%,-11,-3,0.2
CC(C)(C)c1ccc(-c2nc3[nH]c(=O)cc(NC(=O)c4ccco4)n3n2)cc1,-3,-0.5,3.5%,4,4,0.9
Cc1ccc(CN(CC(=O)NCCc2ccccc2)C(=O)CCCC(=O)Nc2cc(C)on2)cc1,-13,1.8,-3.7%,-2,-8,-1.0
CC(=O)Nc1ccccc1NC(=O)c1ccc(C)c(C)c1,-24,-0.5,1.3%,3,11,-2.0
O=C1C(=O)N(Cc2cccnc2)C(c2cccc(Br)c2)/C1=C(/O)c1ccc2c(c1)OCO2 (configuration not stated),-6,0.7,0.9%,-16,-5,-2.2
CNC(=S)N/N=C/c1ccc(N2CCOCC2)s1,-8,1.1,-0.6%,-9,-5,2.8

# Looked up above:
# Reading of Cc1cc(NC(=O)CSCC(=O)Nc2ccc(C)c(C)c2)no1 in TRPML1 agonist: 0.3
# Reading of CNC(=S)N/N=C/c1ccc(N2CCOCC2)s1 in TRPML1 agonist: 1.1

# Compound activity: PubChem, National Center for Advancing Translational Sciences (NCATS)
